Source: PubChem BioAssay
StopGo RLuc = FMDV 2A StopGo reporter, Renilla signal | Potency, µM (titrated, usually from 57.5 µM), for the others: top-dose signal change, negative = less light | hit rate 0.32% among 120,000 | HEK cells with a luciferase reporter of 2A StopGo recoding; active means well fitted falling curve with a large enough effect; inconclusive means small, poorly fitted or top-dose-only effect; inactive means no such curve, though single readings can be large or run the other way; note: nearly all actives have a fitted effect of over 55% in size; overnight with compound
2A firefly = lowers the firefly signal of an FMDV 2A StopGo reporter; HEK cells with a luciferase reporter of 2A StopGo recoding; hit rate 0.23% among 120,000; Potency, µM (top dose mostly 57.5 µM), inactives show at the highest dose signal change, negative = less light; AID 1745856; active = well fitted falling curve with a large enough effect; inconclusive = small, poorly fitted or top-dose-only effect; inactive = no such curve, though single readings can be large or run the other way; note: nearly all actives have a fitted effect of over 60% in size; overnight with compound
* = called active by the depositor; ? = inconclusive; [ ] = remark or other dose. % is set by controls: 0 for no effect and ±100 for the full control effect; potency is the fitted concentration of half-maximal effect. This is a subset (hit frequency here may not be typical).

SMILES	StopGo RLuc	2A firefly
Cc1ccc(CNC(=O)c2c(-c3ccccc3Cl)noc2C)o1	-4.8%	0.0%
CCOC(=O)c1c(C)c(-c2ccccc2)n(CC(=O)Nc2cccc(F)c2)c1C	19.0%	41.8%[activator]
CCn1c(=O)c2ccccc2n(CC(=O)Nc2cccc3cccnc23)c1=O	1.6%	-3.3%
COc1ccc(OC)c(CNc2ncnc3c2nc2n3CCCC2)c1	?	?
Cc1ccc2nc(CSc3nnc(N4CCCC4)n3-c3ccccc3Cl)cn2c1	19.5%	5.4%
O=C(CCCc1nc(-c2ccccc2)no1)Nc1cccc(S(=O)(=O)N2CCOCC2)c1	4.1%	-6.6%
Cc1ccc(NC(=O)CSCc2cc(=O)n3ccsc3n2)cc1	-2.6%	-2.6%
CCn1cnc2c1c(=O)n(CC(=O)NCCc1ccccc1F)c(=O)n2Cc1ccccc1	3.2%	16.8%
COc1ccc(C)cc1-n1nnnc1SCc1nc(C(C)C)no1	26.4%	2.7%
CC(NC(=O)Cn1nnn(-c2ccccc2)c1=O)c1ccccc1 (configuration not stated)	-6.6%	-1.1%
Cc1ccc(NC(=O)Cn2c(=O)c3ccc(Cl)cc3n3nncc23)cc1	-5.1%	-15.9%
CC(C)c1ccc(NC(=O)C(Cc2ccccc2)NS(=O)(=O)c2ccc3c(c2)CCC(=O)N3)cc1 (configuration not stated)	-3.8%	-8.2%
Cc1csc(/C(C#N)=C\c2ccc(COc3ccc(Cl)cc3Cl)o2)n1	-7.0%	13.3%
COc1cc(C2NC(=O)c3c(sc4c3CCN(C)C4)N2)cc(OC)c1OC (configuration not stated)	-6.8%	-6.9%
Cn1c(=O)c2c(ncn2CC(=O)OCc2cccc3ccccc23)n(C)c1=O	-3.2%	9.2%
CCOC(=O)N1CCC2(CC1)OC(=O)C(C)=C2C(=O)NCc1ccc(C)cc1	-6.8%	-20.4%
Cn1ccnc1COc1ccc(CSc2nnnn2C(C)(C)C)cc1	3.0%	34.0%[activator]
Cc1cc(S(=O)(=O)N(C)C)c(C)cc1Br	9.7%	-2.6%
Cc1nc2ccc(Cl)cc2cc1C(=O)N1CCN(CC(=O)N2CCCCC2C)CC1 (configuration not stated)	-13.7%	-4.0%
CCc1nc2ccccc2c(C(=O)OCC(=O)NCC(F)(F)F)c1C	13.2%	7.0%
CC1CCCN(C(=O)CSc2nc(-c3ccco3)cc(C(F)(F)F)n2)C1 (configuration not stated)	8.7%	10.2%
O=S(=O)(c1ccc(N2CCN(Cc3cccc4ccccc34)CC2)nc1)N1CCOCC1	-11.4%	-11.4%
Cc1ccc(NC(=O)CN(c2ccccc2)S(=O)(=O)N(C)C)cc1Cl	35.0%[activator]	14.1%
CC(Sc1ccc(C(C)(C)C)cc1)C(=O)NC(C)(C)C (configuration not stated)	?	?
C=CC(=O)OCCSc1nc(N2CCOCC2)nc(N2CCOCC2)n1	17.4%[1.06 µM]	?
O=C(NCCc1ccccn1)C1CC=CCC1 (configuration not stated)	9.5%	35.3%[activator]
COC(=O)CCOc1ccc(S(=O)(=O)Nc2c(F)cccc2F)cc1	10.5%	1.7%
CCOc1ccc2nc(Cl)c(C3CC(c4ccc(C)cc4)=NN3C(=O)CCCC(=O)O)cc2c1 (configuration not stated)	-2.2%	0.1%
CCOc1ccc(NC(=O)c2sc3nc4c(cc3c2N)CCCCCC4)cc1	-4.3%	1.9%
COc1cc(C(C)=O)ccc1OCCOc1ccc(F)cc1	-8.6%	37.1%[activator]
CC1(C(=O)NC2CCCCC2)Cn2nc(-c3ccco3)cc2C(=O)N1c1ccccc1F (configuration not stated)	22.9%	-5.5%
O=S(=O)(c1cc(F)ccc1F)N1CCN(Cc2cccc3cccnc23)CC1	-8.3%	-3.8%
CC(NCC(=O)NC1(C#N)CCCCC1)c1ccc(Cl)cc1Cl (configuration not stated)	110.4%[activator]	2.1%
Cc1ccc(CCNC(=O)CCS(=O)(=O)c2cc3c(cc2C)NC(=O)CO3)cc1	24.6%	11.4%
COc1cccc(CN2C(=O)c3ccccc3C2C(=O)NCCc2ccccc2)c1 (configuration not stated)	47.9%[activator]	-18.7%
COc1ccc2c(c1)c1c(c(=O)n(-c3ccc(F)c(Cl)c3)c(=O)n1Cc1ccccc1F)n2C	-7.3%	-5.2%
O=C(CSc1nc2ccccc2n1Cc1ccccc1)N1CCN(c2ccc(F)cc2)CC1	-3.1%	-9.6%
CC(C)(NC1CCCCC1)c1nnnn1-c1ccccc1	22.3%	4.4%
Cc1c(C)[n+](=O)c2ccccc2n1[O-]	0.7%	3.7%
CC1=C(C(=O)Nc2cccnc2)C(c2cccc(F)c2)n2nc(SCc3ccccc3)nc2N1 (configuration not stated)	-7.3%	-9.8%
Cc1ccc(C2=NN(C(=O)CNc3ccc(C(=O)N(C)C)cc3)C(c3ccco3)C2)cc1 (configuration not stated)	5.1%	46.3%[activator]
Cc1ccc(CNC(=O)Cc2c(C)c3c(cc(C)c4c(C)coc43)oc2=O)cc1	-15.2%	-5.6%
COc1ccc(/C=C/C(=O)Nc2ccc3nc4c(c(Nc5ccc(OC)c(OC)c5)c3c2)CCCC4)cc1	?	?
Cc1ccc(C(=O)COC(=O)c2n[nH]c(=O)c3ccccc23)cc1	-5.3%	4.2%
COc1ccc(-c2c(NC(=O)c3ccc(F)cc3)oc3ccccc3c2=O)cc1	16.5%	30.6%[activator]
C=CCN1C(=O)[C@@H](CC(=O)N2CCSCC2)[C@]2(C(=O)OCC)CCCCC/C=C/12	24.3%	-2.8%
Oc1ccc(Cl)cc1Cc1ccccc1	78.9%[activator]	3.5%[11.5 µM]
CN(Cc1cn(Cc2ccccc2)nn1)S(=O)(=O)c1ccc(F)cc1Br	16.2%	11.0%
Cc1ccc2cc(/C=C/C(=O)c3c(C)coc3C)c(Cl)nc2c1	?	?
Cc1ccc(Cl)cc1NC(=O)c1nc2ccccc2nc1N1CCN(C)CC1	-13.2%	-19.2%
Cn1c(=O)[nH]c(=O)c2c1nc(N1CCCC1)n2CC(O)COc1ccc(Cl)cc1 (configuration not stated)	-12.0%	-17.2%
COc1ccccc1CNC(=O)c1ccc(-c2csc(C3CC3)n2)cc1	26.0%	22.3%
O=C(CSc1nc(-c2ccccc2)nc2c1CCCC2)c1ccc(F)cc1	-4.2%	-8.7%
Cn1cnc(S(=O)(=O)N2CCC(C(=O)Nc3ccc(OC(F)(F)F)cc3)CC2)c1	?	?
CCCCN(C(=O)COC(=O)c1n[nH]c2ccccc12)C1CCS(=O)(=O)C1 (configuration not stated)	-10.5%	-0.8%
C=CCOc1ccccc1C(=O)Nc1ccc(C#N)cc1	6.0%	0.0%
C=CCc1cccc2cc(C(=O)Nc3ccc(F)cc3)c(=O)oc12	-0.7%	49.9%[activator]
CC(C)(C)c1ccc(CSC2=Nc3ccccc3C3=NC(CC(=O)NCc4cccs4)C(=O)N23)cc1 (configuration not stated)	8.5%	-21.0%
N#Cc1cc(Cl)ccc1OCc1ccccc1	16.4%	251.8%[activator]
CCOc1ccc(-c2nc3c(c(CC)nn3-c3ccccc3)c3cc(OC)c(OC)cc23)cc1	4.4%	0.2%
(list continues)
SMILES	StopGo RLuc	2A firefly
CCCCC(CC)CN1CN(CC(CC)CCCC)CC(C)(N)C1 (configuration not stated)	-10.9%	-5.4%
COc1cc(OC)cc(C(=O)NCc2cc(=O)n3nc(-c4ccccc4)sc3n2)c1	-11.0%	4.6%
COc1ccc(C(=O)NC2CCCCCC2)cc1C	61.9%[activator]	218.7%[activator]
COc1ccccc1CNC(=O)c1cnc2sc(N3CCCCCC3)nn2c1=O	-4.3%	-12.5%
Cc1cccc(N2CCN(S(=O)(=O)c3cc(C(=O)Nc4ccc(Oc5ccccc5)cc4)ccc3F)CC2C)c1 (configuration not stated)	?	?
CN(C)c1ccc(-c2nc3cnccn3c2Nc2cccc(C(F)(F)F)c2)cc1	-0.8%	13.3%
COC(=O)c1c(C)cccc1NS(=O)(=O)c1c(C)nn(C)c1C	-7.8%	-7.6%
CCN1CCC(O)C(C)C1C (configuration not stated)	-12.3%	4.3%
CN(C)c1ccc(NC(=O)c2cc(C(C)(C)C)cc(C(C)(C)C)c2)cc1	-8.8%	-7.6%
CCN(CC)C(=O)CSc1nnc(-c2ccccc2OC)n1N	-9.3%	-5.9%
CC1CC(=O)NN=C1c1ccc(NCC(C)(C)NCC(O)COc2cc(Cl)ccc2C#N)cc1 (configuration not stated)	-3.8%	1.7%
CCc1ccccc1NC(=O)C1CCN(S(=O)(=O)c2ccccc2)CC1	6.2%	-6.4%
O=C(COc1ccc2c(=O)c(-c3ccc(Cl)cc3)coc2c1)N1CCN(c2ncccn2)CC1	18.7%	98.8%[activator]
Cc1ccc(-c2n[nH]c(=O)c3ccccc23)cc1S(=O)(=O)N1CCCCC1	?	?
CCN(CC)C(CNC(=O)c1cc(-c2ccco2)on1)c1ccccc1 (configuration not stated)	21.4%	4.0%

Molecules shown so far that contain a CF3 group, in the order listed:
SMILES	StopGo RLuc	2A firefly
CCc1nc2ccccc2c(C(=O)OCC(=O)NCC(F)(F)F)c1C	13.2%	7.0%
CC1CCCN(C(=O)CSc2nc(-c3ccco3)cc(C(F)(F)F)n2)C1 (configuration not stated)	8.7%	10.2%
Cn1cnc(S(=O)(=O)N2CCC(C(=O)Nc3ccc(OC(F)(F)F)cc3)CC2)c1	?	?
CN(C)c1ccc(-c2nc3cnccn3c2Nc2cccc(C(F)(F)F)c2)cc1	-0.8%	13.3%

Carrying on:
SMILES	StopGo RLuc	2A firefly
O=C(CCc1ncc(-c2ccc(F)cc2)o1)NC1CCN(Cc2ccccc2)C1 (configuration not stated)	-8.1%	18.8%
CCCCn1c(C2NC(=O)NC(C)=C2C(=O)OCC)nc2ccccc21 (configuration not stated)	-0.5%	-0.4%
Cn1nc(-c2ccc(N3CCCCC3)c(NC(=O)c3ccc(Cl)cc3)c2)c2ccccc2c1=O	1.4%	-5.5%
COC(=O)c1ccc(CNC(=O)NCc2coc(-c3cccs3)n2)cc1	6.4%	-1.0%
CC(C)NC(=S)NNC(=O)c1ccco1	6.5%	12.7%
Cc1oc(-c2cccs2)nc1C(=O)NCC(C)N1CCOCC1 (configuration not stated)	-12.9%	-12.3%
Cc1ccc2c(c1)N(C(=O)c1ccc(F)cc1)C(C)(C)CC2(C)c1ccccc1 (configuration not stated)	-3.9%	-13.0%
Cc1cc(=O)oc2cc(OCC(=O)NCCCn3ccnc3)c(Cl)cc12	1.2%	14.4%
CCOc1ccccc1NC(=O)c1c(NC(=O)COc2ccccc2)sc2c1CCCC2	-3.3%	-9.6%
COc1ccccc1/C=C(\C#N)c1nc2ccccc2[nH]1	?	71.7%[activator]
COc1ccc(C2(N3CCN(c4cccc(C)c4C)CC3)C(=O)c3ccccc3C2=O)cc1	-10.4%	-16.8%
CC(C)(C)OC(=O)N1CCC(c2c(C(=O)N3CCc4ccccc4C3)cnn2-c2ccc(Cl)cc2)CC1	5.6%	3.3%
COc1ccc(-n2cnc3cc(C(=O)N4CCCCC4)ccc3c2=O)cc1Cl	2.2%	-2.1%
CCOC(=O)c1ccc(S(=O)(=O)N2CCCC2c2cccn2C)cc1 (configuration not stated)	3.6%	10.6%
COc1cc(C)ccc1OCCSc1nc2ccc(NC(=O)c3ccc(F)cc3)cc2s1	-3.4%	-7.9%

Part of the list above, reformatted.
canonical_smiles | StopGo RLuc | 2A firefly
Cn1cnc(S(=O)(=O)N2CCC(C(=O)Nc3ccc(OC(F)(F)F)cc3)CC2)c1 | ? | ?
CCCCN(C(=O)COC(=O)c1n[nH]c2ccccc12)C1CCS(=O)(=O)C1 (configuration not stated) | -10.5% | -0.8%

Remaining list, next part:
SMILES	StopGo RLuc	2A firefly
Cc1ccc(NC(=O)CSc2nc3ccc(NC(=O)c4cccs4)cc3s2)cc1	0.4%	28.9%
Cc1cccc(Oc2ccc3c(c2)Oc2ccccc2NC3=O)c1	-16.5%	-4.0%
CCOc1ccccc1CNC(=O)CCCn1nc(C)c2sc3ccccc3c2c1=O	27.1%	-20.8%
S=C(NCc1ccncc1)NC1CC1	-13.7%	-2.8%
Cc1ccc(CN(C(=O)c2ccccc2F)c2ccccn2)o1	-7.5%	-1.4%
FC(F)(F)c1cccc(N/N=C/c2ccccc2Br)c1	7.2%	25.6%
CCCCc1ccc(NC(=O)COc2cccc3c(=O)n(C)ccc23)cc1	8.91µM*	?
O=C(Nc1ccccc1Cl)C(=O)c1cn(CC(=O)N2CCOCC2)c2ccccc12	-6.2%	135.7%[activator]
Brc1cccc(-c2cnn3c(-c4ccccc4)cc(-c4ccccc4)nc23)c1	-5.9%	-0.9%
COCCCNC(=O)Cn1c(=O)n(Cc2ccc(C(=O)NCc3ccc(C)cc3)cc2)c(=O)c2ccccc21	-6.8%	-11.4%
COc1ccc(Cl)cc1NC(=O)Nc1c[nH]c(=O)[nH]c1=O	-4.3%	-10.9%
O=C(Cn1c(=O)n(-c2ccccc2)c(=O)c2sc3ccccc3c21)N1CCCC1	-13.4%	0.5%
COc1cc(OC)cc(C(=O)Nc2ccc(N3CCCC3)nc2)c1	5.3%	52.8%[activator]
Nc1c(C(=O)Nc2cccc(F)c2)nnn1-c1cccc(C(F)(F)F)c1	-7.7%	68.5%[activator]
Cc1ccc(C)c(NC(=O)c2csc3c2CCCCC3)c1	19.6%	120.3%[activator]
COc1ccc(NC(=O)CN2C(=O)CC(c3ccco3)Sc3ccccc32)cc1OC (configuration not stated)	21.5%	-0.2%
Cc1c(-c2ccccc2)oc2c(C(=O)OCC(=O)Nc3ccc(F)c(F)c3F)cccc2c1=O	-1.9%	9.1%
Cc1nc2sc3c(c2c(-c2ccc(Cl)cc2)c1C(N)=O)CCCC3	-10.8%	-12.5%
CCN(Cc1ccccc1)c1sc(S(=O)(=O)CC)nc1S(=O)(=O)c1ccc(C)cc1	122.5%[activator]	2.5%
COc1ccccc1CNc1nc(-c2cc(C)n(C)c2C)cs1	-21.6%	-16.3%
CCOc1cc(C#N)c(NC(=O)c2ccc(C(C)(C)C)cc2)cc1OCC	16.3%	18.2%
